Compound activity: PubChem, National Center for Advancing Translational Sciences (NCATS)
Six1-Eya2 blk = Six1/Eya2 interaction inhibition; AID 651725; activity change, % (test concentration not listed); AlphaScreen GST-Six1/His-Eya2 binding, biochemical; stronger effect = lower value; control for the full effect not named in the record; 0.56% of 360,000 active; Q15475+O00167; in the data active = activity change below about -65%; inconclusive = about -30% to -65%; inactive = above about -30%; also: % is scaled to controls: 0 for no effect and ±100 for the full control effect; compound concentration not given in the record
Target sequence (O00167 whole entry, looked up): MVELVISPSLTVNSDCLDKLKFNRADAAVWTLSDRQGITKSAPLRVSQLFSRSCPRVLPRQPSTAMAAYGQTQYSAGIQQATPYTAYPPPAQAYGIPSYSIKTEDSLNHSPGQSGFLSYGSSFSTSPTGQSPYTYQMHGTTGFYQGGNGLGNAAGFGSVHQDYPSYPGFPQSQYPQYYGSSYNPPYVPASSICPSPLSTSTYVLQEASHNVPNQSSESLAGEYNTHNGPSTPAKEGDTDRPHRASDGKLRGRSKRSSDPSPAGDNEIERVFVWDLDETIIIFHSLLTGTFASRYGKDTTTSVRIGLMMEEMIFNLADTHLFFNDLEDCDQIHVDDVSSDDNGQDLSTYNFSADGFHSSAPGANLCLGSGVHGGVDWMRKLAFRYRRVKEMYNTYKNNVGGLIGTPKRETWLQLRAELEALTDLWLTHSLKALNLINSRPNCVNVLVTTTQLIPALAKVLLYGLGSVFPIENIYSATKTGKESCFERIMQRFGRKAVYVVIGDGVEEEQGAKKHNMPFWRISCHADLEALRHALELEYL
Target sequence (Q15475 whole entry, looked up): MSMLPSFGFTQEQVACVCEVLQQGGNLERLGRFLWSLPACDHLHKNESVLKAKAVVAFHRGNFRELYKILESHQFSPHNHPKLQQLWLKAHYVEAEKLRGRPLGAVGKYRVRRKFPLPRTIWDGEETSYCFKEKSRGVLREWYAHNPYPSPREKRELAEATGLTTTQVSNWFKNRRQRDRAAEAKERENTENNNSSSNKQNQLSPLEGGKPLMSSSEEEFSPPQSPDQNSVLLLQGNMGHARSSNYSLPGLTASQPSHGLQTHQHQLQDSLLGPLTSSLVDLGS
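AlphaScreen with GST-Six1 and His-Eya2 (5X mix: 250 nM and 500 nM), glutathione donor and nickel acceptor beads; buffer 50 mM Tris pH 8.0, 300 mM NaCl, 1 mM TCEP; 1 h at 37 C in the dark.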
D2 ag = agonists of human D2 dopamine receptor (beta-arrestin); DiscoveRx PathHunter D2 beta-arrestin, luminescence, 90 min; 100% = 57 uM dopamine signal; activation, % (test concentration not listed); AID 624465; P14416; 0.084% of 360,000 active; in the data active = activation above about 40%; inconclusive = about 15% to 40%; inactive = below about 15%; also: compound concentration not given in the record; the text of the record calls up to 30% inactive
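Agonist mode: compounds alone added to overnight-plated D2 PathHunter cells for 90 min at 37 C, with 57 uM final dopamine (EC100) defining full response. Beta-arrestin recruitment detected by chemiluminescent reagent, read after 1 h at ambient temperature.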
CtBP-E1A inh = CtBP/E1A binding inhibition; AlphaScreen GST-E1A/His-CtBP binding, 1536-well; stronger effect = lower value; control for the full effect not named in the record; activity change, % (test concentration not listed); 0.49% of 340,000 active; AID 651724; in the data active means activity change below about -65%; inconclusive means about -30% to -65%; inactive means above about -30%; also: % is scaled to controls: 0 for no effect and ±100 for the full control effect; compound concentration not given in the record
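In 5 uL wells, 23 nL compound meets equimolar GST-E1A and His-CtBP (5X stock 125 nM each) for 2 h, 37 °C. Beads (5X, 50 ug/mL) then 1 h, 37 °C, dark.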
TRPML1 ag = activates the human TRPML1 channel | TRPML1-expressing cells, Ca2+ dye fluorescence, FDSS; host cell line not named in the record; reference of the full effect not given here | activation, % (test concentration not listed) | 0.12% of 410,000 active; in the data active = activation above about 50%; inconclusive = about 30% to 50%; inactive = below about 30%; also: 0% is about no effect; the text of the record puts the active cut at 80%
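In this qHTS format, compounds were pin-transferred onto Ca8-dye-loaded TRPML1-DL cells induced with Tet overnight, and intracellular Ca2+ fluorescence was recorded kinetically for 110 s after a 10 s baseline. A subsequent 4uM final 54-4 (EC80) addition followed by a second 110 s read served as the antagonist phase.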
PINK1 modulator = changes PINK1 expression. PINK1 immunofluorescence, high-content cytometry, 24 h. Potency, µM (doses to about 76.6 µM), for inactives: at the top dose activation (PINK1 increase), most hits filed as activators. 0.2% of 410,000 active. AID 624263; active = well fitted activation curve with a large enough effect; inconclusive = small, poorly fitted or top-dose-only effect; inactive = flat fitted curve, though single readings scatter; cell line not stated here;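 also: potency is read from the fitted curve at half-maximal effect; % of control where 0% means no effect; nearly all actives have a fitted effect of over 65% in size; a mitochondrial uncoupler was the plate control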
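Fluorescence from anti-PINK1 antibody, together with nuclear and cell stains, was scanned on a laser-scanning cytometer. Before staining, stable-line cells were incubated 24 hours with compounds at 5 concentrations; primary antibody 12 h at 10 degrees C.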
TRPML1 inh = inhibitors of human TRPML1 channel; Q9GZU1; TRPML1-inducible cells, Ca2+ dye fluorescence, FDSS; stronger effect = lower value; inhibition of EC80 agonist-evoked calcium signal; activity change, negative = inhibition, % (no concentration beside the values); 0.02% of 390,000 active; AID 624415; in the data active means activity change below about -50%; inconclusive means about -30% to -50%; inactive means above about -30%;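 also: stimulus is agonist 54-4 at its EC80 concentration; % is scaled to controls: 0 for no effect and ±100 for the full control effect; compound concentration not given in the record; the text of the record puts the active cut at -80%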
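TRPML1-DL cells, Tet-induced overnight (~16 h, 37 °C) at 1,500 cells/well, were loaded with Ca8 no-wash dye plus quencher for 45-90 min at room temperature. Compounds were pinned during FDSS kinetic reading; agonist 54-4 at EC80 (4 uM final) then added.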
Active calls of the source: *; ? = inconclusive; . = not tested or not shown; & = joins results of further samples; [ ] = remark or other dose.

SMILES | Six1-Eya2 blk | D2 ag | CtBP-E1A inh | TRPML1 ag | PINK1 modulator | TRPML1 inh
O=c1[nH]c(SCc2nc3ccccc3c(=O)n2-c2ccccc2C(F)(F)F)nc2ccccc12 | -17 | 0.3 | -6 | 2.5 | -1.7% | 5
Cc1csc(NC(=O)CSC2=NCCS2)n1 | -3 | -4.3 | -14 | 0.6 | -0.8% | 7
Cn1c(=O)c2[nH]c(N3CCN(c4cccc(O)c4)CC3)nc2n(C)c1=O | ? | ? | ? | 2.9 | -1.3% | 3
CCCn1c(SCC(=O)Nc2nccs2)nnc1-c1cccnc1 | 0 | 2.7 | -2 | 0.6 | 1.9% | 11
N#Cc1ccc(N=c2ssnc2Cl)cc1 | 1&7 | -4.8&-2.2 | -3&4 | -0.2&1.0 | 2.1%&-0.6% | -14&10
O=c1ccc2c(o1)/C(=C/C=C(Cl)Cl)CCC2 | 25 | -2.6 | 18 | -0.3 | 3.3% | -8
O=C(C/C=N/OCc1ccc(F)cc1Cl)c1cnc(-c2ccccc2)s1 | 13 | 1.2 | -3 | -0.1 | 1.8% | -4
CN(C)c1ccc(C(=O)c2ccc(N(C)C)c(N)c2)cc1N | -24 | -12 | -15 | -0.6 | 5.2% | -7
NC(=O)c1ncn([C@@H]2O[C@H](CNCc3cc(Cl)ccc3OCc3ccc(Cl)cc3)[C@@H](O)[C@H]2O)n1 | -3 | -1.2 | 2 | 0.1 | 0.3% | 34
COc1ccccc1-c1nnc(SCC(=O)N2CC(C)CC(C)C2)o1 (centres undefined) | -2 | -0.3 | 5 | 1.3 | -0.4% | 16
Cc1cccc(NC(=O)CCn2c(=O)oc3ccccc32)c1 | -1 | -0.4 | 6 | -0.2 | 2.1% | -4
O=C(N/N=C/c1cnc(N2CCOCC2)s1)c1ccccc1 | -6 | -3.2 | -1 | -0.7 | 4.2% | 20
CCN(CC)S(=O)(=O)c1ccc(N2CCOCC2)c(NC(=O)c2ccc(NC(C)=O)cc2)c1 | 4 | -0.9 | -3 | 2.7 | 0.3% | 0
COc1cccc(-c2nnc(SCc3ccc(C#N)cc3)n2Cc2ccco2)c1 | -15 | -0.4 | -14 | 2.6 | -3.1% | 27
COc1ccc(OC)c(NC(=O)c2cc3oc4ccccc4c3cc2O)c1 | 0 | -2.3 | . | 2.1 | 5.2% | 14
CCC(C(=O)OCC(=O)Nc1ccc2[nH]c(=O)[nH]c2c1)c1ccccc1 (centres undefined) | -15 | -1.8 | 2 | 0.4 | -0.4% | 25
O=C(CN1CCN(c2ccccc2F)CC1)N1N=CCC1c1ccccc1 (centres undefined) | -3 | -6.0 | . | 0.5 | 1.0% | -3
CC1CCCCN1S(=O)(=O)c1ccc2[nH]c(=O)cc(C(=O)NCCCN3CCCCCC3)c2c1 (centres undefined) | -17 | 2.0 | -8 | 0.1 | -0.7% | 3
Cc1ccccc1NC(=O)Cn1c(=O)n(CC2CCCO2)c(=O)c2ccccc21 (centres undefined) | 1 | -1.6 | 3 | -0.3 | 2.0% | 3
CCOc1ccc(CCNC(=O)c2[nH]c(C)c(C(C)=O)c2CC)cc1OCC | -4 | 3.1 | 2 | -0.2 | 2.9% | 6
Cc1oc2ncn(CC(C)C)c(=O)c2c1C(=O)N(CCN(C)C)Cc1ccccc1 | . | . | . | -0.8 | -0.8% | -11
COc1cccc(C(=O)NCCCn2ccnc2)c1 | 6 | -4.3 | -3 | 0.2 | 0.0% | 19
COc1cc2c(cc1OC)CN(CC(=O)Nc1ccccc1C(=O)NCc1ccccc1)CC2 | -8 | 2.3 | -1 | 2.9 | 3.4% | 9
CSCC(=O)N1CCCC(N2CCN(c3ccc(F)cc3)CC2)C1 (centres undefined) | 0 | 5.5 | -3 | -0.1 | -0.1% | 18
COCCCN1C(=O)CS/C1=N\S(=O)(=O)c1ccccc1 | 2 | 2.5 | 1 | 0.6 | 1.9% | 21
CCOc1ccc(-n2nnnc2-c2nc3ccccc3s2)cc1 | 14 | 1.8 | 15 | 1.3 | -0.4% | 29
Cc1ccc(N(C(=O)C2CCCC2)C2C=CS(=O)(=O)C2)cc1 (centres undefined) | 12 | 2.8 | 0 | 0.7 | -0.6% | 15
COc1cc(NC(=O)c2nccnc2N)cc(C(=O)Nc2cccc(C(F)(F)F)c2)c1 | 4&-4 | 0.8&0.0 | 3 | 0.0&2.3 | 8.7%&13% | 1&-7
Cc1ccc(S(=O)(=O)NCCCN2CCCC2)cc1 | 4 | 3.1 | 3 | 1.2 | -1.3% | -27
C1=C(c2sc3ccccc3c2-c2ccc(OCCN3CCOCC3)cc2)CCCC1 | -27 | 9.6 | -1 | -0.7 | 12% | 9
COc1ccc(CCN(C)C(=O)c2cc(-c3ccccc3)nc3ccccc23)cc1OC | -7 | -4.4 | 7 | 1.2 | 3.2% | 1
CC(=O)NC(=S)Nc1ccc2oc(=O)ccc2c1 | 1 | 0.0 | 4 | 0.0 | 0.8% | -2
CCc1ccc(NC(=O)CS(=O)CC(=O)N2CCN(c3ccccc3F)CC2)cc1 (centres undefined) | 19 | -3.4 | 14 | 0.5 | 8.7% | 21
CCOC(=O)c1ccc(NS(=O)(=O)c2cn(C)c(C)n2)cc1 | . | . | . | 0.0 | -5.4% | -10
Cc1cc(C(=O)C(C(c2ccccc2)N2CCOCC2)N2CCOCC2)ccc1Cl (centres undefined) | 1 | 0.1 | -24 | 3.7 | 12% | -5
COc1ccccc1NS(=O)(=O)c1ccc2oc(SCc3ccc(C#N)cc3)nc2c1 | 0 | 2.4 | -9 | 0.1 | -0.8% | 0
O=c1cc(-c2ccccc2)[nH]c2cc(Cl)ccc12 | -27 | -2.5 | . | 0.9 | 4.5% | 26
O=C(O)CSc1c(-c2ccccc2)[nH]c2ccccc12 | 2 | -2.7 | -5 | -0.2 | -1.0% | -12
N#Cc1c(-c2ccc(Cl)cc2)c(C#N)c(=O)n(N)c1N | -19 | -3.1 | -18 | 0.6 | 0.5% | -3
NCCCCCc1nnc(SCc2cccc(Cl)c2)o1 | 4 | -0.7 | 0 | -0.9 | 1.2%[38.3 µM] | 0

Sorted by length of the SMILES (smallest number first): three of the compounds above
SMILES | Six1-Eya2 blk | D2 ag | CtBP-E1A inh | TRPML1 ag | PINK1 modulator | TRPML1 inh
N#Cc1ccc(N=c2ssnc2Cl)cc1 | 1&7 | -4.8&-2.2 | -3&4 | -0.2&1.0 | 2.1%&-0.6% | -14&10
O=C(O)CSc1c(-c2ccccc2)[nH]c2ccccc12 | 2 | -2.7 | -5 | -0.2 | -1.0% | -12
COc1cc2c(cc1OC)CN(CC(=O)Nc1ccccc1C(=O)NCc1ccccc1)CC2 | -8 | 2.3 | -1 | 2.9 | 3.4% | 9

A different layout for some results above.
SMILES	Six1-Eya2 blk	D2 ag	CtBP-E1A inh	TRPML1 ag	PINK1 modulator	TRPML1 inh
CCOc1ccc(-n2nnnc2-c2nc3ccccc3s2)cc1	14	1.8	15	1.3	-0.4%	29
Cc1ccc(N(C(=O)C2CCCC2)C2C=CS(=O)(=O)C2)cc1 (centres undefined)	12	2.8	0	0.7	-0.6%	15

The list goes on.
SMILES | Six1-Eya2 blk | D2 ag | CtBP-E1A inh | TRPML1 ag | PINK1 modulator | TRPML1 inh
CNC(=S)N(CCN(C)C)Cc1cc2cc3c(cc2[nH]c1=O)OCO3 | -2 | -1.7 | 5 | -0.1 | 1.4% | 6
O=C(c1ccccc1SCc1ccccc1)N1CCCCCC1 | -3 | -3.0 | -3 | 1.6 | -0.5% | ?
OC(COc1ccc2c(c1)CCC2)CN1CCN(c2cccc(Cl)c2)CC1 (centres undefined) | -27 | 7.7 | -21 | 3.4 | 19% | 13
CCC1Nc2ncnc(N3CCc4ccccc4C3)c2N(Cc2ccc(Br)cc2)C1=O (centres undefined) | -18 | -15 | -7 | 4.9 | 2.9% | 37
CC(C)(C)n1nc2c(c1NC(=O)COc1ccc(Cl)cc1)CS(=O)(=O)C2 | 16 | -5.1 | -2 | -0.5 | -1.0% | -12
Cn1ccc2c(N(Cc3ccccc3)Cc3ccccc3)cc3c(c21)C1CCC3C1 (centres undefined) | ? | 1.7 | -21 | -0.4 | 8.3% | 9
COCCCNC(=O)c1cc(C)nc2ccc(F)cc12 | 2 | -1.9 | 11 | -0.2 | 7.5%[38.3 µM] | 4
Nc1c(-c2ccc(F)cc2)cnc2ncnn12 | 4 | -0.8 | -1 | -0.3 | -6.4%[38.3 µM] | -5
COc1ccc(C(C)(NC(C)=O)c2nc(/C=C/c3ccccc3)cs2)cc1 (centres undefined) | -5 | -2.7 | -5 | -0.7 | 1.7% | .
Cc1ccccc1P(=O)(CO)c1ccccc1C | 14 | -2.6 | 2 | -0.8 | 0.0% | -7
CC(C)(C)c1nc(NCC2CCCO2)c2nnn(Cc3ccccc3)c2n1 (centres undefined) | 0 | -0.5 | 5 | -0.2 | -1.8%[38.3 µM] | 30
CCCCc1ccc(C(=O)N/C(=C\c2ccc(C)cc2)C(=O)NC2CCCCC2)cc1 | . | . | . | 0.7 | -0.1% | -14
ON=C1CCN(c2ncc(C(F)(F)F)cc2Cl)CC1 | 4 | 0.1 | 3 | 0.3 | -3.4% | 20
CCN1CCN(CCCNC(=O)Cn2c(-c3cccs3)cc3cc(F)ccc32)CC1 | . | . | . | 2.0 | -1.0% | -21
Cc1cccc(N2CCN(C(=O)c3ccc(NC(=O)CC4SC(N5CCCC5)=NC4=O)cc3)CC2)c1C (centres undefined) | -6 | -0.5 | 1 | 2.0 | 1.1% | -5
COc1ccc(S(=O)(=O)NCC(c2ccco2)N2CCc3ccccc3C2)cc1 (centres undefined) | 6 | -8.4 | 1 | 2.2 | -0.4% | 21
COc1ccc(CCNC(=O)Nc2ccc([N+](=O)[O-])cc2)cc1OC | 0 | 2.0 | -23 | -0.3 | 2.7% | -6
CCNC(=O)CSc1nnc(C2CC2)n1-c1ccccc1 | 9 | 2.1 | 6 | 0.5 | 0.2% | -8
Cc1ccc(-n2cc(CNCCN3CCOC3=O)c(-c3cccc(C)c3)n2)cc1 | -6 | 2.4 | -6 | 1.0 | 0.5% | 13
COc1ccc(C2c3c(ncn(CCCN4CCOCC4)c3=N)Oc3ccc4ccccc4c32)cc1OC (centres undefined) | -3 | -2.4 | . | 0.4 | -1.8% | -7
CC1(C)CC(NC(=O)c2ccccc2NS(=O)(=O)c2ccc(Br)cc2)CC(C)(C)N1 | 9 | -1.3 | 1 | -0.3 | 0.5% | -5
CC1SC(=NC(=O)C(C)N2C(=O)c3ccccc3C2=O)NC1=O (centres undefined) | 30 | -3.4 | 28 | -0.5 | -0.6% | -10
OCC[C@@H]1C[C@H](O)[C@@H](O)[C@@]2(OCCCc3cc(C(F)(F)F)ccc32)O1 | 20 | -2.5 | 4 | -0.1 | 2.6% | 44
O=C(CSC(=O)c1ccccc1)Nc1ccccc1F | 2 | -5.7 | 1 | 1.1 | 0.6% | -3
c1ccc(Nc2nc(-c3ccccc3)nc3ccccc23)cc1 | 5 | -2.1 | 12 | 1.7 | 6.1% | 26
